# RanGTP-Imp inh – inhibitors of RanGTP-importin-beta interaction, primary screen, biochemical, FRET, CFP-Ran, YFP-importin-beta, homogeneous. cell-free CFP-Ran/YFP-importin-beta FRET ratio. actives 1.1% (n = 300,000). AID 2216, 2009. inhibition, % (no concentration beside the values);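 active means most replicates above 15%; inconclusive means exactly half above 15%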;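 further: 0% = DMSO wells and 100% = Ran loaded with GDP instead of GTP; wells of about 40 µL received 100 nL stock; the first replicate is given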
# ALR inh – inhibitors of human ALR sulfhydryl oxidase, primary screen, biochemical, H2O2 detection, HRP-luminol luminescence, single point; FAD-linked sulfhydryl oxidase ALR (Homo sapiens), P55789; purified ALR, DTT oxidation; inhibition, % (test concentration not listed); actives 3.8% (n = 290,000); AID 485317, 2010;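 active means mean and each replicate at 75% or more; inconclusive means only one of the two met; inactive means neither met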;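 further: stock transfer was 7.5 nL into about 7.5 µL; 0% = neutral wells and 100% = wells with inactivated enzyme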
# Target sequence (P55789 whole entry, looked up): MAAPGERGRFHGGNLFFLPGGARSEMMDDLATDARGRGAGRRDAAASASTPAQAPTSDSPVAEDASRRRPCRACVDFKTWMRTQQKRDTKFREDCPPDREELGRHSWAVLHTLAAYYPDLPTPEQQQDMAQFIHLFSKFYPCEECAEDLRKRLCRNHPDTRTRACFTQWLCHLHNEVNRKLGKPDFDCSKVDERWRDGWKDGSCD
# MLL AF4-AF9 inh – inhibitors of AF4 peptide binding to AF9, primary screen, biochemical, AlphaScreen, biotin-AF4 peptide, FLAG-AF9, single point; Protein AF-9 (Homo sapiens), P42568; inhibition, % at 10 µM; actives 0.47% (n = 350,000); AID 651704, 2012;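 active means every replicate reaching a set inhibition limit, whatever the replicate mean, cut at about 25% in these data; inconclusive means mean inhibition reaches that limit but some replicates miss it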;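 further: 0% = plate neutral control median and 100% = total signal loss; the record names both 10 and 1 µM as test concentration; the first replicate is given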
# Target sequence (P42568 whole entry, looked up): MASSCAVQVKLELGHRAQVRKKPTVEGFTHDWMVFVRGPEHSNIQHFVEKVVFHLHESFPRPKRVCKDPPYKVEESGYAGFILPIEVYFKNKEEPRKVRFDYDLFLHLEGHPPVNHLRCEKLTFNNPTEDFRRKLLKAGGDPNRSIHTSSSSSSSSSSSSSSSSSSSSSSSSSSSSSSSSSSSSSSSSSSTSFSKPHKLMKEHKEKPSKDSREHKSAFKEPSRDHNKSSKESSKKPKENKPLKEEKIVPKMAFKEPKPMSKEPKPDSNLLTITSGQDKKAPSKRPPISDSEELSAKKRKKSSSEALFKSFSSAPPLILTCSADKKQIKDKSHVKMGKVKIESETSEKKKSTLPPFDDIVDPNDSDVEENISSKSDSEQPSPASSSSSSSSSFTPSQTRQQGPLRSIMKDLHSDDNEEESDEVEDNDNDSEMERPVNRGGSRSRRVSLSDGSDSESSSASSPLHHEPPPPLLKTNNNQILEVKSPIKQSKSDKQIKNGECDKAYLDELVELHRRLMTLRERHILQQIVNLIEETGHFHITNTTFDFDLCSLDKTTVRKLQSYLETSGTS
# Calb FLC – C. albicans growth inhibition with fluconazole, primary screen, CaCi-2 strain, Alamar Blue fluorescence. C. albicans CaCi-2 (fluconazole-resistant clinical isolate) + fluconazole, 48 h. growth inhibition, % (test concentration not listed). actives 0.57% (n = 300,000). AID 1979, 2009;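 active means most replicates above 75%; inconclusive means exactly half above 75%; inactive means most below 75%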;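 further: all wells also contain fluconazole at 8 µg/ml as a sub-toxic cotreatment; 0% = median of DMSO wells and 100% = median of geldanamycin control wells; wells of about 8 µL received 7.5 nL stock; the first replicate is given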
# FGF22 binding – binders of human FGF22 protein, primary screen, FGF22 synaptogenesis inhibitor project, biophysical, thermal shift, single point | AID 651658, 2012 | actives 1.5% (n = 340,000) | recombinant FGF22 thermal shift, SYPRO orange fluorescence; percent of sucrose octasulfate shift, DMSO zero | Fibroblast growth factor 22 (Homo sapiens), Q9HCT0 | calls only at 9.99 µM;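 active means melting point raised past a set limit in the mean and every replicate; inconclusive means no clear call; three in four hits are not shown here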
# Target sequence (Q9HCT0 whole entry, looked up): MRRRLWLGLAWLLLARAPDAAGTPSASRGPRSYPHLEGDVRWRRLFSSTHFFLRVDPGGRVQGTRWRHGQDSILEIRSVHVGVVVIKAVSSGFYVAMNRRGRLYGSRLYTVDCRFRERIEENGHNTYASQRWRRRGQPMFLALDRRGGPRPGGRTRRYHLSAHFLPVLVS
# Beta cell apopt – inhibitors of cytokine-induced beta cell apoptosis, primary screen, luminescence. INS-1E cytokine-induced death, ATP luminescence, 48 h; percent of positive-control rescue, neutral wells zero. protection from apoptosis, % (no concentration beside the values). actives 0.8% (n = 300,000);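 active means all replicates at 75% or more, or half of them and the mean; inconclusive means half reach 75% but not the mean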;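 further: 0% = cytokine-treated negative control wells and 100% = positive control rescue; higher means more ATP so stronger rescue from cytokine killing; wells of about 40 µL received 100 nL stock; the first replicate is given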
# rRNA inh HTS – reduced GFP signal of wild-type E. coli, primary screen, bacterial rRNA inhibitor project, GFP/RFP fluorescence, OD600, single point | actives 1.6% (n = 350,000) | AID 720706, 2013 | E. coli WT GFP vs humanized-ribosome RFP mutants, 24 h; hits give low values; DMSO median 0, no signal -100 | GFP signal change (wild-type ribosome), % (test concentration not listed);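 active means significant combined selectivity score with lowered wild-type GFP, culture density cut under 30%, mutant RFP and density less affected; inactive means any of these conditions unmet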; further: one replicate is shown; some compounds called inactive have numbers as strong as hits
# T cruzi inh – inhibitors of intracellular T. cruzi growth, primary screen, luminescence, NIH3T3 host cells. T. cruzi beta-gal in NIH3T3, 90 h. inhibition, % (no concentration beside the values). actives 1.4% (n = 300,000). AID 1885, 2009;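 active means mean inhibition across valid replicates above about 55%, limit read from the data; inconclusive means mean below that limit but half or more replicates reach it; inactive means mean below it, under half of replicates reach it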;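 further: signal also drops with host cell toxicity which is not excluded here; 0% = plate median of DMSO wells and 100% = zero luminescence signal; higher percent means less beta-gal luminescence so fewer parasites; stock transfer was 50 nL into about 50 µL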
# rRNA inh HTS OD600 – further read-out of rRNA inh HTS, marked with its call; OD600 change, %; measured here: OD600 growth;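 optical density of the mix in the first replicate; 0 = DMSO median and -100 = no signal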
# rRNA inh HTS RFP – further read-out of rRNA inh HTS, marked with its call; RFP signal change, %; measured here: RFP humanized mutant strains;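 first replicate; 0 = DMSO median and -100 = no signal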
# Numbers without * were called inactive; i = inactive; ? = inconclusive; / = not tested or not shown.
SMILES,RanGTP-Imp inh,ALR inh,MLL AF4-AF9 inh,Calb FLC,FGF22 binding,Beta cell apopt,rRNA inh HTS,rRNA inh HTS OD600,rRNA inh HTS RFP,T cruzi inh
COc1ccc(S(=O)(=O)NCc2ccc(C(=O)N3CCN(c4ccccn4)CC3)cc2)cc1,-0.6,-4,/,6,/,3,/,/,/,1
COc1ccc(OC)c(CN2CCCCCC2)c1,1.6,/,5.3,-7,i,/,10,7,3.6,-4
O=C(CCC(=O)N1CCN(S(=O)(=O)c2ccccc2)CC1)c1ccc(Br)cc1,/,-4,3.6,/,i,3,10,6,0.6,/
Cc1ccc(CNC(=O)[C@@H](NC(=O)C2CCN(C(=O)[C@@H]3CCCN3)CC2)C(C)C)cc1,-0.4,-10,-1.8,-7,i,-9,/,/,/,5
CCS(=O)(=O)N1CCN(C(=O)c2ccc(-c3ccccc3)cc2)CC1,0.5,-14,/,-12,/,-4,/,/,/,-2
CN(C)C(=O)N1CCCC(C(=O)NCc2ccccc2)C1 (stereo not given),-1.0,-7,/,0,/,/,/,/,/,-21
CNC(=O)OCCSCCS(=O)(=O)c1ccc(Cl)cc1,-0.5,-6,/,1,i,-12,5,5,1.0,-1
Cc1ccc(Cn2cc(SCC(N)=O)c3ccccc32)cc1,0.3,/,-2.8,0,i,1,/,/,/,-10
COC(=O)C1=C(C)N(C)C(=O)NC1c1ccc(O)c(Cl)c1 (stereo not given),-0.9,1,0.2,0,i,-1,-21,3,15,-1
COc1ccc(CCC(=O)N2CCN(S(=O)(=O)c3ccc(C)cc3)CC2)cc1,/,-31,0.7,/,i,-3,1,-17,-0.5,/
CCN(CC)CCNC(=O)c1ccc(NC(=O)c2c(F)cccc2Cl)cc1,-0.8,-2,1.5,-18,i,1,7,-4,-0.5,10
O=C(C1CCCN(S(=O)(=O)c2ccc(Br)cc2)C1)N1CCOCC1 (stereo not given),-0.9,1,-0.5,5,i,-1,16,19,1.1,-8
CCCCCc1c2c(cc(O)c1C(=O)O)OC(=O)c1c(cc(OC)cc1C(=O)CCCC)O2,-1.4,98*,/,-4,/,-3,/,/,/,8
COc1ccc(CC(=O)Nc2cc(C)c3c(=O)oc4ccccc4c3n2)cc1,-0.8,-3,3.5,-1,i,13,6,4,3.7,32
Cc1c(NC(=O)c2ccc(-c3cccc([N+](=O)[O-])c3)o2)c(=O)n(-c2ccccc2)n1C,3.7,1,1.6,-2,i,-3,-4,11,-1.3,-4
COc1ccccc1CNC(=O)C1(c2ccc(Cl)cc2)CC1,-1.2,-7,-2.4,-35,i,3,16,22,0.8,14
CC(=O)Oc1ccc2nc(-c3cccs3)oc(=O)c2c1,1.9,65,/,4,/,-12,/,/,/,8
Cc1ccc(CNC(=O)C(=O)NCC2OCCN2S(=O)(=O)c2ccc(C)cc2)cc1 (stereo not given),6.6,3,-4.8,-6,i,2,8,16,-0.2,10
O=C(O)CCN1C(=O)NC2(CCCC2)C1=O,6.2,/,/,12,/,-5,/,/,/,-2
Cn1c(C(=O)NC2CC2)cc(=O)n(C)c1=O,?,/,-0.4,9,i,-10,2,8,0.4,-9
CC(Cc1c[nH]c2ccccc12)NC(=O)C1CCCNC1=O (stereo not given),0.4,22,-26,52,/,-1,13,5,-2.6,-10
Cc1ccc(C(=O)N(CC#N)CC#N)cc1C,-3.6,17,-0.2,16,i,-2,11,11,1.5,2
N/C(=N\NC(=O)c1cccs1)c1cc2ccccc2oc1=O,?,7,0.1,15,i,-1,-5,-14,1.3,-32
CC1CN(C(=O)c2cccc(S(=O)(=O)N3CCN(c4ccc(F)cc4)CC3)c2)CC(C)O1 (stereo not given),1.0,3,-0.8,-26,i,17,-5,0,0.3,2
O=C1CCc2cc(S(=O)(=O)NCCC(=O)NC3CCCCC3)ccc2N1,?,0,-0.6,-3,i,2,4,1,-4.0,-15
COc1ccc(S(=O)(=O)N[C@@H](Cc2ccc(Cl)cc2)C(=O)N2CC[C@@]3(O)CCCC[C@H]3C2)cc1,9.6,/,/,0,/,1,/,/,/,7
Cc1ccc(S(=O)(=O)c2cn(Cc3ccc(F)cc3)c3cc4c(cc3c2=O)OCO4)cc1,4.7,/,/,9,/,-4,/,/,/,16
Cc1cc(C)nc(SC2CCOC2=O)n1 (stereo not given),4.4,-14,/,4,/,3,/,/,/,1
Cc1[nH]c(-c2ccc3c(c2)OCO3)nc1C(=O)O,0.9,-2,5.7,-2,i,23,0,4,2.0,-2
CC(=O)c1cc(C#N)c(Oc2ccccc2)nc1C,0.2,-7,/,-2,/,-3,/,/,/,3
COc1cc(CCC(=O)Nc2c(C(=O)N3CCN(c4ccccc4OC)CC3)oc3ccccc23)on1,2.2,-1,4.4,-8,i,0,5,6,1.4,-8
CCOc1cccc(-c2nnc3sc(COc4ccc(OC)cc4)nn23)c1,3.4,-4,/,3,/,-2,/,/,/,-2
Cc1nc2ccccc2c2ncccc12,3.3,0,-13,4,i,-5,-7,-9,-2.0,-1
CC(=O)NNC(=O)CN1C(=O)/C(=C/c2ccccc2)SC1=S,-3.4,/,3.7,-4,i,-2,14,7,4.0,-4
COc1ccc(Nc2nc(OC)nc(OC)n2)cc1,-0.5,14,1.0,9,i,/,-5,1,-1.8,-4
COc1ccc(CCNC(=O)c2nnn(-c3ccc4c(c3)OCCO4)c2N)cc1OC,1.0,-27,/,3,/,1,/,/,/,-11
CC(=O)Nc1ccc(S(=O)(=O)Nc2ccc3ccccc3n2)cc1,-0.2,-11,-1.1,-27,i,-3,0,4,-0.7,4
COc1ccc(CNC(=O)CSc2nnnn2-c2ccccc2)cc1,1.8,-4,/,-8,/,-13,/,/,/,-1
CCOC(=O)c1c(C#N)c(SCC(=O)Nc2ccc(OC)cc2)nc2c1CN(CC)CC2,-3.4,99*,/,-10,/,/,/,/,/,23
O=C(O)c1ccccc1NS(=O)(=O)c1cccc(C(F)(F)F)c1,7.8,50,/,-11,/,-2,/,/,/,-1

# Pulled by structure from above:
SMILES,RanGTP-Imp inh,ALR inh,MLL AF4-AF9 inh,Calb FLC,FGF22 binding,Beta cell apopt,rRNA inh HTS,rRNA inh HTS OD600,rRNA inh HTS RFP,T cruzi inh
Cc1ccc(Cn2cc(SCC(N)=O)c3ccccc32)cc1,0.3,/,-2.8,0,i,1,/,/,/,-10
CC(=O)c1cc(C#N)c(Oc2ccccc2)nc1C,0.2,-7,/,-2,/,-3,/,/,/,3
Cc1ccc(CNC(=O)C(=O)NCC2OCCN2S(=O)(=O)c2ccc(C)cc2)cc1 (stereo not given),6.6,3,-4.8,-6,i,2,8,16,-0.2,10
Cc1[nH]c(-c2ccc3c(c2)OCO3)nc1C(=O)O,0.9,-2,5.7,-2,i,23,0,4,2.0,-2
CNC(=O)OCCSCCS(=O)(=O)c1ccc(Cl)cc1,-0.5,-6,/,1,i,-12,5,5,1.0,-1

# Next section
SMILES,RanGTP-Imp inh,ALR inh,MLL AF4-AF9 inh,Calb FLC,FGF22 binding,Beta cell apopt,rRNA inh HTS,rRNA inh HTS OD600,rRNA inh HTS RFP,T cruzi inh
CCN1CCN(Cc2cc(=O)oc3cc4c(cc23)CCC4)CC1,2.6,15,/,-3,/,-1,/,/,/,31
CCOC(=O)/C(=N/Nc1ccc(C)cc1)S(=O)(=O)c1ccc(Cl)cc1,-7.3,-6,/,6,/,5,/,/,/,35
Cc1ccc(S(=O)(=O)NC(=O)Nc2cccc([N+](=O)[O-])c2)cc1,0.5,/,-0.8,2,i,-4,7,14,0.9,-2
Cc1nn(C)c(C)c1S(=O)(=O)N1CCC(C(=O)NC2CCCCCC2)CC1,1.1,-3,-2.8,-2,i,-2,-5,-1,2.0,1
Cc1ccc(S(=O)(=O)N2CCCCC2)cc1NC(=O)CSc1ncnc2ccccc12,3.6,/,/,-20,/,-5,/,/,/,-5
Cc1ccc(NS(=O)(=O)c2cccc(C(=O)Nc3c(C)n(C)n(-c4ccccc4)c3=O)c2)cc1,-2.8,-15,/,-1,/,4,/,/,/,4
COc1ccc(CC2=CC(=O)c3ccccc3C2=O)cc1,-2.7,50,-3.0,34,i,/,-20,-37,-3.0,40
COc1cc(/C=C(/C#N)C(=O)c2c(C)[nH]c3ccccc23)ccc1OCC#N,-0.1,6,-1.8,4,i,5,1,7,-2.7,-4
c1ccc2c(N3CCCCC3)ncnc2c1,-1.5,-5,/,17,/,-9,/,/,/,-22
COCCN(CCOC)c1ncc(Cl)c(C(=O)c2c(C)cc3ccccn23)n1,0.6,-12,/,7,/,5,/,/,/,11
CCN1CCN(c2cc(C)c3cc(NC(=O)c4cncc(Br)c4)ccc3n2)CC1,-0.9,/,/,-10,/,-3,/,/,/,27
Cc1nnc(SCC(=O)Nc2nccs2)n(N)c1=O,6.2,24,-0.8,-29,i,-2,11,9,1.4,-11
CCOc1ccc(C(=O)NCC2CCCO2)cc1OCC (stereo not given),-2.6,-1,0.6,-3,i,-8,11,14,-2.9,-1
CCSc1nnc(NC(=O)CCNS(=O)(=O)c2cc(Br)cnc2N)s1,1.0,2,/,0,/,32,/,/,/,11
COc1ccc(-c2ccc(/C=N/NC(=O)Cc3nnc(N)s3)o2)cc1Cl,2.0,-13,18,-1,i,-1,-7,-5,0.3,/
CC(C)NS(=O)(=O)c1ccc(CCC(=O)NCc2ccncc2)cc1,4.5,-4,-2.2,12,i,-7,10,8,-0.3,17
CC(C)C1Cc2nc(Cl)c(C#N)cc2CO1 (stereo not given),3.8,-14,0.7,-1,i,/,10,-3,-0.1,-1
O=C(Cc1c(F)cccc1Cl)NNC(=O)c1ccco1,/,-14,0.9,/,i,-8,5,-1,2.2,/
O=C(Nc1cccc(S(=O)(=O)NC2=NCCC2)c1)c1ccccc1,/,-8,0.7,/,i,9,5,7,0.7,/
O=C(Nc1ccc(-n2cccn2)cc1)C1CCN(Cc2ccccn2)CC1,0.5,-7,1.5,-2,i,1,1,9,1.1,-2
O=C(Oc1ccc(-c2csnn2)cc1)c1cccs1,2.2,-7,-4.0,-9,i,-6,16,17,3.6,-6
CCOC(=O)COc1c(OC)cc(Cl)cc1C1Nc2ccccc2C(=O)N1c1cccc(C)c1 (stereo not given),3.1,-5,/,16,/,-3,/,/,/,36

# The list is partial; the hit share may differ from the screen's.
